# VDR inh – Inhibitors of the vitamin D receptor (VDR): qHTS | Potency, µM, for the others: max response, negative = inhibition, most hits filed as inhibitors | AID 504847, 2011 | actives 0.93% (n = 400,000) | Vitamin D3 receptor (Homo sapiens), P11473 | VDR-SRC2-3 peptide fluorescence polarization, 2 h; active = well fitted inhibition curve with a large enough effect; inconclusive = small, poorly fitted or top-dose-only effect, or another doubt; inactive = no such curve, though single readings can be large or run the other way; also: series mostly up to about 120 µM
# Target sequence (P11473 whole entry, looked up): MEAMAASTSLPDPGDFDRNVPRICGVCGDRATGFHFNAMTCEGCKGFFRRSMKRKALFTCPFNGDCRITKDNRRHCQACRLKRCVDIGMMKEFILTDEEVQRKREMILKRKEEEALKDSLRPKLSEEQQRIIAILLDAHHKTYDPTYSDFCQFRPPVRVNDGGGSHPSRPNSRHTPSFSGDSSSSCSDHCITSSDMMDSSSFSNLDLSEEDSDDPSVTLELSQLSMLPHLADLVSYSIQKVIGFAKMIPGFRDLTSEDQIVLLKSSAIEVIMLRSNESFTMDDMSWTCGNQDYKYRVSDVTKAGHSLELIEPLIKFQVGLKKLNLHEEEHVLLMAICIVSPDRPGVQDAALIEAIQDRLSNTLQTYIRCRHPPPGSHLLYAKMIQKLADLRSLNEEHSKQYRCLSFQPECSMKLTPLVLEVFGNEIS
#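 Reagent solutions, kept cold and dark, are dispensed first; compounds are then pinned in at 23 nl, plates briefly spun, and incubated 2 h at ambient temperature. Inhibition of VDR–SRC2-3 peptide binding is read by fluorescence polarization.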
# * hit, by the source's call; u = inconclusive; & = joins results of further samples. % is scaled to controls: 0 for no effect and ±100 for the full control effect; potency is read from the fitted curve at half-maximal effect.
# Start of the listing, in advance (seven entries):
VDR inh	SMILES
-18.7%	Cc1ccc(-n2nnnc2SCC(=O)N2Cc3ccccc3CC2C(=O)O)cc1 (stereo unspecified)
-2.6%	O=C1CCCN1c1ccc(S(=O)(=O)N2CCC(c3ccccc3)CC2)cc1
-6.8%	CCOc1ccc(CCNC(=O)c2cccc(N3CCCC3=O)c2)cc1OCC
21.5%	CCCCN(C)C(=O)c1ccc2c(c1)S(=O)(=O)c1ccccc1C2=O
-29.7%	COc1ccccc1NS(=O)(=O)c1ccc(O)c(NC(=S)NCC2CCCO2)c1 (stereo unspecified)
-1.2%	COc1ccccc1-c1c(C)nn2c(NCCN3CCCC3)cc(C)nc12
2.6%	Cn1c(=O)c2c(nc(C(O)c3ccccc3)n2C)n(C)c1=O (stereo unspecified)

# Results, from the first entry:
VDR inh	SMILES
-18.7%	Cc1ccc(-n2nnnc2SCC(=O)N2Cc3ccccc3CC2C(=O)O)cc1 (stereo unspecified)
-2.6%	O=C1CCCN1c1ccc(S(=O)(=O)N2CCC(c3ccccc3)CC2)cc1
-6.8%	CCOc1ccc(CCNC(=O)c2cccc(N3CCCC3=O)c2)cc1OCC
21.5%	CCCCN(C)C(=O)c1ccc2c(c1)S(=O)(=O)c1ccccc1C2=O
-29.7%	COc1ccccc1NS(=O)(=O)c1ccc(O)c(NC(=S)NCC2CCCO2)c1 (stereo unspecified)
-1.2%	COc1ccccc1-c1c(C)nn2c(NCCN3CCCC3)cc(C)nc12
2.6%	Cn1c(=O)c2c(nc(C(O)c3ccccc3)n2C)n(C)c1=O (stereo unspecified)
-13.0%	O=S(=O)(NCCn1ccc2ccccc21)c1ccccc1
5.2%	O=C(OCc1ccccc1)/C(=C/c1cccc2ccccc12)NC(=O)c1ccccc1
u	CC(C)(C)c1nc(SCC(=O)NCc2ccco2)c2ccccc2n1
8.9%	N#Cc1ccc(-c2ccccc2)nc1SCCN1CCOCC1
-9.4%	COCC(=O)Oc1c(S(=O)(=O)c2ccccc2)c(C)nn1C(C)(C)C
8.8%	COc1ccc(NC(=S)N2CCC(N(C)CC3CCCO3)CC2)cc1 (stereo unspecified)
1.5%	CCc1ccc(NCc2cc3ccc(OC)cc3n(CC(=O)Nc3ccc(C)c(Cl)c3)c2=O)cc1
-15.0%	NC(=S)N/N=C/c1c[nH]c2ccc(OCc3ccccc3)cc12
-5.8%	COc1ccc(F)cc1C(=O)C1CCCN(Cc2ccc(Oc3ncccn3)cc2)C1 (stereo unspecified)
u	Cc1ccc(-n2c(CCC(=O)O)ccc2-c2cccs2)cc1C
-2.2%	Cc1cc(NS(=O)(=O)c2ccc(NC(=O)C(C)Oc3cc(C)c(Cl)c(C)c3)cc2)no1 (stereo unspecified)
4.2%	CC(C)CCN1CC(C(=O)N2CCN(c3ccc(F)cc3)CC2)CC1=O (stereo unspecified)
2.5%	O=C(NCCS(=O)(=O)N1CCN(c2ccccc2)CC1)C1CCCC1
-2.2%	O=C(O)/C(=C\c1ccc(C(F)(F)F)cc1)c1ccc(S(=O)(=O)N2CCCC2)s1
7.7%	CCOc1cccc(C(=O)NNC(=O)CCC(=O)O)c1
-10.6%	CCC(=O)N1CCc2cc(Br)cc(S(=O)(=O)CCC(=O)N(CC)CC)c21
-4.9%	O=C(COC(=O)C1CC2CCCC(C1)C2=O)NC(=O)c1ccccc1 (stereo unspecified)
0.6%	COc1ccc(C(CNC(=O)c2cc3ccccc3cc2OC)N2CCCC2)cc1 (stereo unspecified)
-7.7%	CCCSc1nc(O)c(C2OC(=O)c3c2ccc(OC)c3OC)c(=O)n1C (stereo unspecified)
-3.3%	COc1ccc(C(=O)Nc2ccccc2N2CCN(C(=O)c3ccccc3)CC2)cc1Br
4.5%	O=C(O)c1ccccc1SCC(=O)N1CCOCC1
-17.8%	Clc1ccc(-c2nnc3sc(Cc4cccs4)nn23)c(Cl)c1
u	O=c1[nH]c(NC2CCN(S(=O)(=O)c3ccccc3C(F)(F)F)CC2)nc2c1CCCC2
-1.4%	CCN1CCN(c2oc(COc3ccc(Cl)cc3)nc2C#N)CC1
-7.8%	O=C(CSc1nnc(-c2cccnc2)n1Cc1ccco1)Nc1cccc(O)c1
0.0%	CC(=O)c1cc(-c2ccccc2)[nH]c1N1CCCC1
-10.3%	COc1ccc(NS(=O)(=O)c2ccc3c(c2)CCC(=O)N3)cc1O
3.6%	CSc1nn(CC(=O)Nc2ccc(C)cc2C)c(N)c1S(=O)(=O)c1ccc(Cl)cc1
-6.9%	c1ccc(-n2cccc2)c(N2CCCCC2)c1
-11.6%	O=C(NCCc1ccccc1)C1CCN(S(=O)(=O)N2CCCC2)CC1
-18.1%	Cc1csc(NC(=O)CCCC(=O)c2ccccc2)n1
-8.9%	O=C(COC(=O)CNS(=O)(=O)c1ccc(F)c(F)c1F)Nc1ccc(OC(F)F)cc1
16.4%	COc1ccccc1NC(=O)c1ccc2[nH]c(C)cc(=O)c2c1
-24.5%	O=C(c1ccncc1)N1CCC[C@@]2(CCN(Cc3cc(C(F)(F)F)cc(C(F)(F)F)c3)C2)C1
6.9%	O=C(Cn1c2[n+](c3ccc(C(F)(F)F)cc31)CCCCC2)Nc1ccc(Br)cc1
4.2%	CCOc1ccccc1NC(=O)Cn1cc(C(=O)c2ccc(Cl)cc2)c(=O)c2ccc(C)nc21
6.1%	Cc1ccc(NC(=O)Cn2c(=O)n(CC3CCC(C(=O)NC(C)C)CC3)c(=O)c3sccc32)cc1 (stereo unspecified)
-2.4%	O=C(CN1CCN(Cc2ccc(Cl)cc2)CC1)N/N=C/c1cccc(F)c1
-6.9%	CCOc1ccc(N2C(=O)CC(N(CCc3ccc(OC)c(OC)c3)C(=O)/C=C/C(=O)O)C2=O)cc1 (stereo unspecified)
4.5%	Cc1nc2sc3c(c2c(=O)n1/N=C/c1ccco1)CCCC3
-6.5%	COCc1nnc(NC(=O)C2CC(=O)N(CCc3ccc(F)cc3)C2)s1 (stereo unspecified)
16.7%	CC(=O)NC(=S)Nc1ccccc1C(=O)NC1CCCCC1
6.2%	CCCCNC(=O)Cn1nc([N+](=O)[O-])c([N+](=O)[O-])c1C
-0.6%	CC(C)(CN1CCc2ccccc2C1)NS(=O)(=O)c1ccc(Cl)cc1
-0.4%	CC(C)=C1C2CCC1C1C(=O)N(NC(=O)COc3ccc(C(C)(C)C)cc3)C(=O)C21 (stereo unspecified)
3.4%	Cc1cccc(OCC(=O)OCC(=O)N2CCN(C(=O)c3ccco3)CC2)c1C
-1.6%	COc1ccc(CCNC(=O)COC(=O)C23CC4CC(CC(Br)(C4)C2)C3)cc1
-4.7%	Cc1cc(C)c(C#N)c(SCC(=O)CC(=O)OC(C)C)n1
-8.6%	CC1CCCCC12NC(=O)N(CC(=O)OCC(=O)N(C)C1CCCCC1)C2=O (stereo unspecified)
1.8%	COc1ccccc1/C=N/NC(=O)CC(=O)NCc1ccccc1
0.2%	Cc1cc(C)n(C(C)CC(=O)Nc2ccc3c(c2)OCCO3)n1 (stereo unspecified)
-9.8%	O=S(=O)(Nc1cccc(S(=O)(=O)N2CCCC2)c1)c1cccs1
-5.6%	Cn1c(=O)c(=O)n(C)c2cc(S(=O)(=O)N3CCN(Cc4ccccc4)CC3)ccc21

# The list goes on:
VDR inh	SMILES
15.3%	CCn1nc(C)c(CCN(C)C(=O)Nc2cc(Cl)ccc2C)c1C
-4.8%	CC(=O)N1CCN(S(=O)(=O)c2ccc(Cl)cc2F)CC1
5.8%	Cc1ccc(NC(=S)N2CCC(NC(=O)c3ccc(F)cc3)CC2)cc1
11.1%	C=CCN1CCCC1CNC(=O)c1cc2[nH]nnc2cc1OC (stereo unspecified)
-11.7%	CN(CC(=O)Nc1ccc(F)c(F)c1F)C(=O)c1ccc2c(c1)OCCO2
8.9%	CC(O)(CS(=O)(=O)c1ccc(Br)cc1)c1ccccc1 (stereo unspecified)
-3.5%	C[C@@H]1C(SC2Cn3cnc[n+]3C2)=C(C(=O)[O-])N2C(=O)[C@H]([C@@H](C)O)[C@@H]12 (stereo partly specified)
-0.6%	O=C(Cc1ccccc1)NC1CCN(Cc2ccccc2)CC1
2.1%	CCN(CC)S(=O)(=O)c1ccc(C(=O)Nc2nnc(CSC)o2)cc1
-15.1%	O=C(Nc1ccccc1)C(c1ccccc1)C1CCCC1 (stereo unspecified)
-12.2%	CCOC(=O)c1c(-c2ccc(C)cc2)csc1NC(=O)c1ccc(C(C)(C)C)cc1
-14.8%	Cc1ccc(SCC(=O)OC(C)C(=O)NCc2ccccc2)cc1 (stereo unspecified)
-15.8%	CC1(C)NC(=O)NC2(C)NC(=O)NC(C)(C)C12 (stereo unspecified)
8.2%	Cc1noc(C)c1CSCC(=O)Nc1nc2ccccc2s1
3.0%	CCc1ccccc1NC(=S)N(CCN1CCOCC1)Cc1ccccc1F
-20.7%	O=C1CN(C(=O)CNC(=O)c2cccc(Cl)c2)c2ccccc2N1
-9.7%	N#Cc1ccccc1OCC(=O)N(Cc1nnc(-c2ccccc2Cl)o1)C1CC1
11.3%&9.4%	COc1cccc(NC(=O)CCNS(=O)(=O)c2ccc3c(c2)oc(=O)n3C)c1
-12.7%	CCC(=O)Nc1ccc(NC(=O)c2oc3ccccc3c2C)cc1
2.4%	CN1CCN(C(=O)CN2C(=O)CC(C)(C)S(=O)(=O)c3ccccc32)CC1
12.4%	CC(=O)Nc1ccc(C(=O)n2cnc3cc(C)c(C)cc32)cc1
-15.8%	COc1ccc(NC(=O)CSc2nnc3n2CCCCC3)cc1S(=O)(=O)N1CCOCC1
-4.5%	CCC(CC)C(=O)Nc1cccc(S(=O)(=O)c2cccc(NC(=O)C(CC)CC)c2)c1
16.8%	Nc1ccc2c(c1)C(=O)c1cc(N)c(Cl)cc1-2
-8.0%	COc1ccc(C(C(=O)NC2CCCC2)N(C(=O)c2snc(C(N)=O)c2N)C2CCCC2)cc1OC (stereo unspecified)
4.2%	CC1(C)Cc2c(cnn2-c2cccc(F)c2)C(NC(=O)c2ccc(=O)[nH]n2)C1 (stereo unspecified)
u	Cc1cccc(-c2nn(C(=S)Nc3ccccc3)cc2-c2ccnc3ccccc23)n1
11.2%	COc1ccc(NC(=O)c2ccc(=O)oc2)cc1
1.6%	Cc1cc(C)c2c(=O)cc(C(=O)Nc3ccccc3Cl)oc2c1
5.4%	O=C(Nc1nnc(-c2ccccc2Cl)s1)C1CCN(S(=O)(=O)c2ccc(Cl)cc2)CC1
-10.1%	COc1ccccc1-c1nc(SCC(=O)Nc2ccccc2)n[nH]1
-27.3%	CC1(c2ccccc2)CC(C)(C)N(C(=O)c2cc([N+](=O)[O-])cc([N+](=O)[O-])c2)c2ccccc21 (stereo unspecified)
-13.4%	C=CCN1C(=O)c2ccc(C(=O)N(C)CC(=O)Nc3c(C)cccc3C)cc2C1=O
-6.9%	O=C(COCc1cc(-c2cccs2)on1)NCc1ccc(Cl)cc1
u	CCOC(=O)C1(CCCc2ccccc2)CCN(C(=O)C2=C(C)OCCO2)CC1
-13.5%	CCOC(=O)c1c(N)sc2c1CCSC2
-2.0%	O=c1nc2sc3ccccc3n2c(=O)n1-c1cccc(Cl)c1
15.4%	CC(=O)Nn1cnc2c(c1=O)C1(CCCC1)Cc1ccccc1-2
-20.2%	OC(CNCCN1CCNCC1)Cc1ccccc1 (stereo unspecified)
7.1%	COc1ccc(/C=N/NC(=O)Nc2nonc2N)cc1
-5.8%	O=C1N(Cc2cccnc2)C[C@@H]2C[C@@H](c3ccc4nonc4c3)N3CCC[C@@]123
-14.4%&3.4%	CCCCC/C=C\C[C@H](O)/C=C/C=C\C/C=C\CCCC(=O)O
17.1%	COc1ccc(NC(=O)CSc2cn(CC(=O)N3CCCCC3)c3ccccc23)c(OC)c1
11.4%	CCC(=O)c1ccc(OC(=O)c2ccc(Br)o2)cc1
5.7%	CCCc1nn2c(=O)cc(COC(=O)c3ccc(NC(=O)COc4ccccc4F)cc3)nc2s1
11.6%	CC(=O)Nc1ccc(S(=O)(=O)Nc2ccc(S(=O)(=O)Nc3nc(C)cc(C)n3)cc2)cc1
8.8%	COc1ccc(NC(=S)NC(NC(=O)c2ccc(Cl)cc2Cl)C(Cl)(Cl)Cl)c([N+](=O)[O-])c1 (stereo unspecified)
2.3%	O=C(c1cc(S(=O)(=O)N2CCOCC2)ccc1Cl)N1CCc2ccccc2C1
17.8%	CCCNC(=O)C1CCN(c2ncnc3c2nc2n3CCCCC2)CC1
3.8%	Fc1ccc(/C=N/N2CCN(Cc3ccccc3)CC2)cc1
-18.0%	COC(=O)/C(C#N)=C/c1c(N2CCN(Cc3ccc4c(c3)OCO4)CC2)nc2c(C)cccn2c1=O
-7.9%	O=C1C2CCCN2C(c2cccc(Br)c2)N1c1ccc(F)cc1 (stereo unspecified)
3.7%	CCOC(=O)N1CCN(c2c(-c3ccc(C(C)C)cc3)c(=O)c2=O)CC1
2.0%	Cn1cnc([N+](=O)[O-])c1C(=O)Nc1cccc([N+](=O)[O-])c1
11.4%	O=C(COc1ccccc1Cl)NNC(=O)c1ccc(-n2cncn2)c([N+](=O)[O-])c1
-1.8%	CCOC(=O)c1sc2nc(NC(=O)COc3ccccc3)sc2c1C
-12.6%	CC(C)Cc1nc(N2CCC(C(N)=O)CC2)c2nnn(Cc3ccccc3)c2n1
u	CCC(=O)Nc1ccc(Cl)c(NC(=O)c2ccc([N+](=O)[O-])cc2)c1
7.2%	C=CCn1c(SCC(=O)NNC(=O)Nc2ccc(C)cc2)nnc1-c1ccccc1
-12.5%	O=C(O)c1ccc(NC(=S)NC(=O)c2ccc3ccccc3c2)cc1
3.6%	CS(=O)(=O)c1ccc2nc(NC(=O)CCNC(=O)c3ccccc3Cl)sc2c1
-11.7%	Cc1cccc(NC(NC(=O)Cc2ccccc2)C(Cl)(Cl)Cl)c1 (stereo unspecified)

# Reprinted at random: 3 compounds from above, in no set order.
VDR inh	SMILES
-1.6%	COc1ccc(CCNC(=O)COC(=O)C23CC4CC(CC(Br)(C4)C2)C3)cc1
-18.7%	Cc1ccc(-n2nnnc2SCC(=O)N2Cc3ccccc3CC2C(=O)O)cc1 (stereo unspecified)
-0.6%	CC(C)(CN1CCc2ccccc2C1)NS(=O)(=O)c1ccc(Cl)cc1

# These rows are one share of the data; count on the stated rates, not on these rows.
